Assay outcomes deposited in PubChem by several laboratories.
Vif A3G – inhibitors of Vif binding to APOBEC3G peptide, primary screen, biochemical, TR-FRET, GST-Vif 1-94, biotin-A3G peptide, dose response retest (AID 1117319). TR-FRET GST-Vif / biotin-A3G peptide binding; higher % means a stronger effect; test concentration not given here; strong numbers were not always called active. Virion infectivity factor (Human immunodeficiency virus type 1 group M subtype B (isolate …. hit rate 0.57% among 260,000. inhibition, %, or IC50 in µM where a hit was titrated;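 active = above the screen mean plus three standard deviations and confirmed in dose response; inconclusive = results disagree or hit not tested in dose response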;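 note: Vif residues 1-94 fused to GST binding biotinylated APOBEC3G peptide 110-148; 0% = full assay without inhibitor and 100% = GST in place of GST-Vif; retest series ran down from 100 µM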
E coli growth – E. coli growth inhibition, primary screen, OD600. Escherichia coli growth, 23 h; hits give low values. OD600 absorbance (test concentration not listed). hit rate 0.21% among 330,000;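 active = OD600 absorbance below the run mean of sample wells minus 3.6 SD, in any replicate, cut at about 0.56 in these data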;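 note: stock transfer was 300 nL into about 60 µL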
HNF4A DNA FP – change in binding of human HNF4A to DNA, primary screen, biochemical, fluorescence polarization, FITC-DNA. Hepatocyte nuclear factor 4-alpha (Homo sapiens), P41235. 1 h. activity change, % at 10 µM. hit rate 0.3% among 360,000; in the data active = activity change above about 30%, passing the limit was not always enough;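 note: controls were the assay level and a saturating level of protein; the project sought stronger binding though the title names inhibitors; some compounds called inactive have numbers as strong as hits; positive values seem to mean higher polarization but the record does not say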
Target sequence (P41235 whole entry, looked up): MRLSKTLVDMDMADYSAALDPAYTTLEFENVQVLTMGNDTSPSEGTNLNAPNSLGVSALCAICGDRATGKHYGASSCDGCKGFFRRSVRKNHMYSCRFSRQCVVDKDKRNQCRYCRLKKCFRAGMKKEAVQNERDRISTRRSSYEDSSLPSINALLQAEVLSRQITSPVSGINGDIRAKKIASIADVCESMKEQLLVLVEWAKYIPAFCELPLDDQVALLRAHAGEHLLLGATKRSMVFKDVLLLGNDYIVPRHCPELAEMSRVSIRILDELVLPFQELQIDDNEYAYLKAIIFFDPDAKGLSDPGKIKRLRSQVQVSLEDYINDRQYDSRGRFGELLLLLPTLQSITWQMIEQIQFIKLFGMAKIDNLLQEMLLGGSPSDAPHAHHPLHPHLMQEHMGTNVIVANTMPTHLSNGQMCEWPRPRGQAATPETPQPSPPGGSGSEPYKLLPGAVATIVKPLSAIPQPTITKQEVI
UCH37 DUB inh – inhibitors of human UCH37 deubiquitinase, primary screen, biochemical, Ub-AMC cleavage, fluorescence | Ubiquitin carboxyl-terminal hydrolase isozyme L5 (Homo sapiens), Q9Y5K5 | purified proteasome/UCH37 | inhibition, % (test concentration not listed) | hit rate 0.33% among 330,000;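 active = mean of two replicates above 20%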;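 note: 0% = compound-free wells with enzyme and 100% = wells lacking proteasome; stock transfer was 100 nL into about 20 µL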
Target sequence (Q9Y5K5 whole entry, looked up): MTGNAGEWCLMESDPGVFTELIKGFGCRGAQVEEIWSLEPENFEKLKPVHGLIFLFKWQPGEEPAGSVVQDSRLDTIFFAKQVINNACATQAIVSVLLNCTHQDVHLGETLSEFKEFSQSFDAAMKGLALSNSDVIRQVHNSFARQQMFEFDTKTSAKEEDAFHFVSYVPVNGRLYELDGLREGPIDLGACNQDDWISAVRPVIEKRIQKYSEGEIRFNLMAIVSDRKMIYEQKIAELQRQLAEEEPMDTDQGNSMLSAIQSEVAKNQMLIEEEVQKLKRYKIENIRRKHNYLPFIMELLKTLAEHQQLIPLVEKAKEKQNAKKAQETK
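System: Proteasome-associated human UCH37 deubiquitinase; Input: 0.15 nM proteasome in added enzyme buffer; Also added: Ub-AMC substrate from 1 µM stock; Incubation: 30 min compound-proteasome preincubation then 25 min substrate reaction, room temperature; Detection: fluorescence, ex 355 nm, em 460 nm; Read-out: % inhibition of Ub-AMC cleavage fluorescence; Benchmarks: no-proteasome and no-compound wells.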
RanGTP-Impb inh – inhibitors of RanGTP-importin-beta interaction, primary screen, biochemical, FRET, CFP-Ran, YFP-importin-beta, homogeneous; Ran GTPase (GTP-bound) - importin-beta complex; cell-free CFP-Ran/YFP-importin-beta FRET ratio; inhibition, % (concentration not given with the values); hit rate 1.1% among 300,000;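 active = most replicates above 15%; inconclusive = exactly half above 15%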;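 note: 0% = DMSO wells and 100% = Ran loaded with GDP instead of GTP; wells of about 40 µL received 100 nL stock; the first replicate is given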
AF4-AF9 inh – inhibitors of AF4 peptide binding to AF9, primary screen, biochemical, AlphaScreen, biotin-AF4 peptide, FLAG-AF9, single point | Protein AF-9 (Homo sapiens), P42568 | inhibition, % at 10 µM | hit rate 0.47% among 350,000 | AID 651704, 2012;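 active = every replicate reaching a set inhibition limit, whatever the replicate mean, cut at about 25% in these data; inconclusive = mean inhibition reaches that limit but some replicates miss it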;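 note: 0% = plate neutral control median and 100% = total signal loss; the record names both 10 and 1 µM as test concentration; the first replicate is given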
FGF22 binding – binders of human FGF22 protein, primary screen, FGF22 synaptogenesis inhibitor project, biophysical, thermal shift, single point. calls only at 9.99 µM. AID 651658, 2012. Fibroblast growth factor 22 (Homo sapiens), Q9HCT0. hit rate 1.5% among 340,000. recombinant FGF22 thermal shift, SYPRO orange fluorescence; percent of sucrose octasulfate shift, DMSO zero;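 active = melting point raised past a set limit in the mean and every replicate; inconclusive = no clear call; three in four hits are not shown here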
Target sequence (Q9HCT0 whole entry, looked up): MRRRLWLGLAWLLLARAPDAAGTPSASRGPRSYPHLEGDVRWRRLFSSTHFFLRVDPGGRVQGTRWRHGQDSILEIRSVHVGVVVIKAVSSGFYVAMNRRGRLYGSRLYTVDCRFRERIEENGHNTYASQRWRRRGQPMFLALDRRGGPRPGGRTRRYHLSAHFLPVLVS
* marks the source's active call; other numbers are inactive results; i = inactive; ? = inconclusive; · = no result given; & = joins results of further samples. This is a subset (hit frequency here may not be typical).

SMILES	Vif A3G	E coli growth	HNF4A DNA FP	UCH37 DUB inh	RanGTP-Impb inh	AF4-AF9 inh	FGF22 binding
C/C=C/C=C\C(=O)Nc1cccc(C2=NOC3(C2)C[C@@H](C(N)=O)N(C(=O)c2cc([N+](=O)[O-])cc([N+](=O)[O-])c2)C3)c1 (some centres undefined)	?	·	1.4	-1.2	0.4	-3.3	i
NC(CC(=O)O)c1ccc(F)cc1 (centres undefined)	·	0.74	-1.9	-0.5	0.9	·	·
Cn1nccc1NC(=O)Nc1cccc(Cl)c1Cl	9%	0.67	2.1	0.8	1.9	-0.9	i
CN(CCOc1ccc(Cl)cc1)C(=O)c1cc([N+](=O)[O-])ccc1N1CCOCC1	4%	0.67	-2.1	7.4	-1.0	8.8	i
O=C(Cc1ccc(Br)cc1)OCC(=O)c1ccc2c(c1)OCCO2	4%	0.74	-1.8	-1.5	-0.9	·	·
CNC(=O)Nc1ccccc1C(=O)Nc1ccccc1	-3%	0.66	0.3	-0.4	-1.9	0.8	i
O=C(C1=C(O)C(=O)N(CCOCCO)C1c1cccc([N+](=O)[O-])c1)c1cccs1 (centres undefined)	9%	0.7	0.6	13	-3.2	-2.2	i
CCCNC(=O)C1(C)CCCN(Cc2ccc(-n3ccnc3)cc2)C1 (centres undefined)	·	·	3.7	·	·	-1.7	i
c1ccc(CNc2cccnc2)cc1	-7%	·	-5.0	·	·	-1.5	i
CCOC(=O)c1c(NC(=O)CSc2nc3ccc(OC)cc3[nH]2)sc2c1CC(C)(C)NC2(C)C	-1%	0.69	1.5	4.8	7.7	-15	i
COc1ccc2nc(Nc3ccc4c(c3)OCO4)sc2c1	0%	0.74	-4.4	1.4	-1.8	·	·
O=C1C=C(c2ccnc3cc(Cl)ccc23)C[C@@H](c2ccc3c(c2)OCO3)C1	·	·	-0.6	3.5	·	14	i
CC(=NCCN1CCOCC1)C1=C(O)c2ccccc2C1=O	5%	0.71	-0.7	-6.7	-2.6	·	·
N#Cc1nc(-c2cccc3ccccc23)oc1N1CCCCC1	?	0.73	-2.4	-54	-0.5	·	·
COc1ccc(-c2nnn(CC(=O)N(Cc3cccs3)C(C)C(=O)NCCC(C)C)n2)cc1OC (centres undefined)	0%	0.71	-0.3	-2.9	8.0	·	·
Cc1ccc(SCCC(=O)OCC(=O)NCC2CCCCC2)cc1	·	0.65	1.1	1.4	1.1	-2.7	i
CC(=O)Oc1ccc(Cl)cc1/C=C/c1ccc2ccccc2n1	8%	0.66	-0.1	-20	-2.4	·	·
O=C(COC(=O)c1ccc([N+](=O)[O-])o1)NC12CC3CC(CC(C3)C1)C2	-5%	0.68	2.9	10	·	3.1	i
NNC(=O)c1cnn(Cc2ccccc2)c1N	·	0.72	-0.9	-2.1	-0.5	·	·
COC(=O)c1c(NC(C)=O)sc(Cc2ccccc2)c1C	0%	0.68	-2.8	1.0	?	·	·
Cc1cccc(OCC(=O)Nc2cccc(-c3nnc(-c4ccccc4)o3)c2)c1C	-9%	0.67	2.5	4.1	-4.4	·	·
O=C(c1ccccn1)N(Cc1cc2ccccc2[nH]c1=O)C1CCCCC1	4%	0.76	-0.1	0.3	-5.9	·	·
COc1cccc(/C=C(/C(=O)OCC(=O)NC2CCCC(C)C2C)c2ccccc2)c1 (centres undefined)	·	0.71	-2.1	1.7	-0.6	·	·
CCOc1ccc(S(=O)(=O)/N=C(/Nc2ccc(C)c(S(=O)(=O)N3CCOCC3)c2)c2ccccc2)cc1	·	0.7	2.7	2.1	·	2.0	i
CCOC(=O)c1ccc(NS(C)(=O)=O)cc1	4%	0.71	-2.7	2.7	7.1	·	·
O=C(NCCc1ccccc1)C1CCCN(S(=O)(=O)c2cccs2)C1 (centres undefined)	-1%	0.76	6.3	0.4	2.4	-6.8	i
CCC(C)NC(=O)c1ccccc1NS(=O)(=O)c1ccc(OC)c(OC)c1 (centres undefined)	-6%	0.67	-1.3	-3.4	7.3	·	·
Cc1cc(C)nc(Sc2nc(Nc3ccccc3)nc(Sc3nc(C)cc(C)n3)n2)n1	0%	0.66	-1.2	1.8	-0.9	·	·
CCOc1ccc(OCC)c(NC(=O)C2CCCN(S(=O)(=O)c3cnc[nH]3)C2)c1 (centres undefined)	2%	0.74	1.1	4.3	-0.8	2.1	i
COc1ccc(CCNC(=O)c2ccc3c(=O)n4c(nc3c2)CCC4)cc1OC	-3%	0.69	-0.3	-0.5	·	-1.9	i
COc1cc(Cl)c(C)cc1NC(=O)COc1ccccc1[N+](=O)[O-]	14%	0.7	0.2	3.8	0.9	·	·
Cc1ncc([N+](=O)[O-])n1Cc1ccccc1	27%	0.69	-2.6	1.4	0.4	-4.6	i
CCCCCC1C(C(=O)OCC)C(=O)NC1(C(=O)OCC)C(=O)OCC (centres undefined)	-6%	0.68	-1.4	1.3	·	-1.8	i
COc1cccc(N(CC(=O)N/N=C(\C)c2cccs2)S(C)(=O)=O)c1	-1%	·	0.4	·	-1.8	·	·
Cc1cc(N/N=C/c2ccccc2Br)nc2ccccc12	·	·	-4.3	·	1.5	1.1	i
CC(C)(C)c1ccc(/C=N/OCC(=O)NCc2ccccc2)cc1	3%	·	3.0	·	5.2	-0.5	i
Nc1n[nH]c2cccc(Cl)c12	-2%	0.64	-2.7	1.6	?	-1.3	i
Oc1oc(C=Nc2ccc(F)cc2F)c2ccccc12	·	0.68	2.6	-0.6	-0.3	-1.0	i
CN1C(=O)C(O)(CC(=O)c2cccs2)c2ccccc21 (centres undefined)	-4%	0.67	-3.9	-2.2	4.0	0.8	i
CCCCCC(=O)Nc1cccc(C2=NOC3(C2)C[C@H](C(N)=O)N(C(=O)[C@H]2CCC(=O)N2)C3)c1 (some centres undefined)	?	·	2.6	0.0	4.3	0.5	i
COc1ccc(NC(=O)N(C)C[C@H]2OCCCC[C@H](C)Oc3ccc(NS(=O)(=O)c4cn(C)cn4)cc3C(=O)N([C@H](C)CO)C[C@@H]2C)cc1	2%	·	0.7	·	·	-0.5&-1.4	i
CC(C)(C)n1nc2c(c1NC(=O)c1cccs1)CS(=O)C2 (centres undefined)	26%	0.73	-0.9	1.7	-0.7	·	·
CCCNC(=S)NCc1ccc(Cl)cc1	0%	0.64	-0.7	4.6	2.8	·	·
OC(Cc1ccncc1)(c1ccccc1)c1ccccc1	·	0.63	-1.6	25*	0.0	-1.5	i
O=C(COC(=O)c1cc(F)cc(F)c1)Nc1cccnc1Cl	-1%	0.71	-2.8	2.6	-2.7	-0.9	i

Given with two lines to a compound: two of the compounds above
Order of values – Vif A3G | E coli growth | HNF4A DNA FP | UCH37 DUB inh | RanGTP-Impb inh | AF4-AF9 inh | FGF22 binding
> OC(Cc1ccncc1)(c1ccccc1)c1ccccc1
→ · | 0.63 | -1.6 | 25* | 0.0 | -1.5 | i
> O=C(COC(=O)c1cc(F)cc(F)c1)Nc1cccnc1Cl
→ -1% | 0.71 | -2.8 | 2.6 | -2.7 | -0.9 | i

(further entries)
SMILES	Vif A3G	E coli growth	HNF4A DNA FP	UCH37 DUB inh	RanGTP-Impb inh	AF4-AF9 inh	FGF22 binding
CC(CC(=O)Nc1ccc(S(=O)(=O)N2CCOCC2)cc1)c1ccccc1 (centres undefined)	·	0.73	-0.7	1.7	1.1	3.0	i
Cc1ccc(NC(=O)CC2S/C(=N/N=C/c3ccco3)NC2=O)cc1Cl (centres undefined)	9%	·	2.8	·	-2.7	-2.0	i
COc1ccc2c(c1)C1(Nc3ccccc3-c3nc4ccccc4n31)C(=O)N2C (centres undefined)	31%	0.8	0.2	-5.0	·	·	·
CSCCC(NS(=O)(=O)c1ccccc1F)C(=O)NC(C)c1ccccc1 (centres undefined)	3%	0.65	1.1	-2.9	2.3	-0.3	i
c1ccc(OCCN2CCN(Cc3nc(-c4ccc5c(c4)OCO5)no3)CC2)cc1	2%	0.64	-2.7	1.5	-1.3	·	·
NCCSC1CC(=O)N(c2ccc(Cl)c(Cl)c2)C1=O (centres undefined)	-5%	0.69	2.3	6.7	-2.2	5.8	i
O=C(O)CCC(=O)NCc1cn(-c2ccccc2)nc1-c1cccc(Br)c1	10%	0.68	-1.3	1.6	5.2	1.8	i
Cc1ccc(S(=O)(=O)NNC(=O)c2ccoc2C)cc1	?	0.68	1.3	0.0	-0.2	13	i
COC(=O)c1ccc(NC(=O)c2c(C(=O)Nc3ccccc3)sc3nc(C)cc(=O)n23)cc1	1%	0.67	0.1	-4.8	·	0.6	i
CCOc1cc(NC(=S)NCCCOC)c(OCC)cc1NC(=O)c1ccco1	1%	0.68	0.6	1.9	3.7	·	·
O=C(CN1CCN(CCC(=O)Nc2ccccc2F)CC1)Nc1ccc(F)cc1	19%	0.75	3.0	-0.7	·	·	·
O=C(CNC(=O)c1ccccn1)N/N=C/c1ccccc1	-2%	·	2.4	·	2.8	·	·
O=C(Oc1ccccc1C(=O)Oc1ccccc1)c1ccco1	2%	0.71	-7.9	3.9	6.2	3.4	i
CN(C)C(=S)Nc1ccc(Cl)cc1	-7%	0.68	0.2	5.9	4.3	-0.1	i
CC(C)c1cc(-c2cc(-c3ccc(Cl)cc3)on2)nc(NC2CCCC2)n1	20%	0.72	-5.7	-8.7	-1.0	·	i
CC1CCC(NC(=O)CNC(=O)Cc2cccc3ccccc23)CC1 (centres undefined)	·	0.65	2.0	5.7	-3.4	-1.3	i
CCOC(=O)[C@]12CCC=C1N(Cc1cccc3ccccc13)C(=O)[C@H](CC(=O)NCc1cccc3ccccc13)C2	·	·	-2.2	·	·	1.6	i
O=C(NCc1ccccc1OC(F)(F)F)C1CCC(=O)N(Cc2cccc(F)c2)C1 (centres undefined)	2%	0.62	1.4	-0.6	0.7	-9.5	i
O=c1cc(C(F)(F)F)nc(-c2ccccc2)[nH]1	3%	0.72	-1.4	1.7	0.3	·	·
CC1(C)CC(=O)C2=C(C1)N(c1ccc(F)cc1)C(=O)CC2c1ccccc1 (centres undefined)	0%	0.71	5.0	4.4	-0.2	·	·
Cc1sc2nc(SCC(=O)Nc3ccc(Cl)c(C(=O)O)c3)[nH]c(=O)c2c1C	·	·	0.6	·	·	-0.6	i
Oc1c(Cl)cc(Cl)cc1C=Nc1ccc2c(c1)OCCO2	5%	0.66	-7.0	0.1	3.2	·	·
COc1ccc(S(=O)(=O)Nc2ccc(F)c(F)c2)cc1Cl	17%	0.67	-0.1	0.7	?	·	·
CCOC(=O)Cc1nnc(NC(=O)c2cccc(OCC)c2)s1	2%	0.69	-1.9	5.2	3.0	·	·
Cn1cc([N+](=O)[O-])c(C(=O)N/N=C/c2ccccc2)n1	8%	·	-2.2	·	-1.7	·	·
COc1ccc(CN2CCN(CC(=O)Nc3ccccc3C(=O)NC3CC3)CC2)cc1F	0%	0.7	1.1	3.7	·	3.2	i
Cc1ccc(Cn2cnc3ccccc32)cc1	3%	0.66	-2.2	1.6	-0.3	-18	i
Cc1ccc(NC(=O)COC(=O)c2ccc3ncsc3c2)c(C)c1	-2%	·	1.3	·	·	2.2	·
CCN(CC)S(=O)(=O)c1ccc(N2CC(C(=O)N3CCOCC3)CC2=O)cc1 (centres undefined)	11%	0.68	1.6	2.0	·	-1.2	i
Cc1cc(C)n2c(SCC(O)=C(C#N)c3nc4ccccc4[nH]3)nnc2n1	-1%	0.64&0.64	5.8	6.2&7.8	·	-6.1	i
